NPYLR7 agonist – mosquito NPYLR7 agonism. HEK293T NPYLR7/Galpha15, GCaMP6s calcium fluorescence. activation, % at 10 µM. 270,000 compounds, 0.15% hits; in the data active means activation above about 40%;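 further: 0% = vehicle and 100% = reference agonist at the receptor; some compounds past the cut are filed as inactive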
NPYLR7 agonist max-min – also measured in NPYLR7 agonist; calls as there; activation, %; measured here: Max-Min RFU normalised activation; some inactives read as strong as hits;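 span of the calcium signal over five minutes; 0% = vehicle and 100% = native peptide agonist; compound fluorescence can raise it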
An asterisk follows results filed as active; & = joins results of further samples. Only part of the results is shown (hit frequency here may not be typical).

A first look:
no.	SMILES	NPYLR7 agonist	NPYLR7 agonist max-min
1	CC1CCCCC1N(C)C(=O)CCc1nc(-c2ncccn2)no1 (centres undefined)	0.3	-1.4
2	CN1CCN(c2nccc(CCC(F)(F)F)n2)CC1CCO (centres undefined)	16.4	11.9
3	O=S(=O)(c1ccc(F)cc1)N(Cc1cccc(Oc2ccc(Cl)cc2)c1)Cc1ccco1	-8.8	-14.1
4	COc1ccc(/C=C/C2=NC(=C\c3ccc(OC)c(OC)c3)/C(=O)O2)cc1	3.4	0.5
5	O=C(CSc1nc(=O)n2cc(Cl)ccc2n1)Nc1cccc(F)c1	5.6	3.6
6	COc1ccc(-c2nc(CN3CCS(=O)(=O)CC3)c(C)o2)cc1OC	15.4	4.1

This part in full, previewed entries included:
no.	SMILES	NPYLR7 agonist	NPYLR7 agonist max-min
1	CC1CCCCC1N(C)C(=O)CCc1nc(-c2ncccn2)no1 (centres undefined)	0.3	-1.4
2	CN1CCN(c2nccc(CCC(F)(F)F)n2)CC1CCO (centres undefined)	16.4	11.9
3	O=S(=O)(c1ccc(F)cc1)N(Cc1cccc(Oc2ccc(Cl)cc2)c1)Cc1ccco1	-8.8	-14.1
4	COc1ccc(/C=C/C2=NC(=C\c3ccc(OC)c(OC)c3)/C(=O)O2)cc1	3.4	0.5
5	O=C(CSc1nc(=O)n2cc(Cl)ccc2n1)Nc1cccc(F)c1	5.6	3.6
6	COc1ccc(-c2nc(CN3CCS(=O)(=O)CC3)c(C)o2)cc1OC	15.4	4.1
7	CC1CC1c1cc(N)n(-c2ccccc2)n1 (centres undefined)	-0.6	-4.7
8	CC1(C(=O)NS(=O)(=O)c2cccc(OC(F)F)c2)CCN1C(=O)C1CC1 (centres undefined)	-1.3	-0.3
9	CCCOC(=O)C1=C(C)NC2=C(C(=O)CCC2)C1c1ccc(CC)cc1 (centres undefined)	-1.0	-3.2
10	CN(c1ccccc1)c1ccc(CNc2cncc(Cl)n2)cc1F	1.6	0.2
11	CCN(CC)C(=S)SC1=C(Cl)CS(=O)(=O)C1	10.8	9.4
12	Cc1nc2scc(C)n2c(=O)c1S(=O)(=O)NCc1ccco1	12.9	5.5
13	COc1ccc(-c2noc(CN3CCCN(c4ncccn4)CC3)n2)c(OC)c1OC	3.9	3.2
14	O=c1[nH]c2cc(S(=O)(=O)N3CCCCC3)ccc2o1	6.1	5.0
15	CC(C)(C)c1ccc(C(C)(C)C)c(-n2cnnc2)c1	-1.3	-2.4
16	CC(Sc1n[nH]c(=O)n1C1CC1)C(=O)c1ccc(Br)cc1 (centres undefined)	1.9	0.1
17	COc1ccc(CCN(C)C(=O)c2cncn2-c2cccc(-c3ccc(OC)c(OC)c3)c2)cc1OC	11.1	3.2
18	Cc1ccc(-c2ccc(OCCNS(=O)(=O)c3ccc(C)cc3C)nn2)cc1	-3.5	-11.1
19	Cc1cccn2c(CNC(=O)[C@@H]3C[C@@H](NC(=O)c4cccs4)CN3)cnc12	-2.1	-2.2
20	Cc1ccc(C(=O)N[C@@H]2CC[C@@H](N)C2)c(=O)[nH]1	0.7	-4.2
21	Cc1nc2ccccn2c(=O)c1NC(=O)C1CCCCC1	3.5	2.7
22	CC(=O)N1CCN(C(=O)CCc2csc(NC(=O)c3ccc[nH]c3=O)n2)CC1	-6.5	-11.1
23	CCOC(=O)C1CCCN(C(C)C(=O)NC(C)(C#N)C(C)C)C1 (centres undefined)	-18.7	-17.0
24	COc1ccc(C=C2N=C(c3cccc(Br)c3)OC2=O)cc1OC	-6.3	-7.7
25	CC(C)(C)c1cc(CN2CCOC(CCc3ccccc3)C2)[nH]n1 (centres undefined)	9.3	7.5
26	CN1CCN(C(=O)C2CNCCN2C(=O)c2ccc3ccccc3n2)CC1 (centres undefined)	4.9	2.1
27	O=S(=O)(c1cccc(Cl)c1Cl)N1CCN(Cc2nc(-c3ccc(Cl)cc3)no2)CC1	0.9	8.4
28	COc1ccc(-n2nc(-c3ccc(C)c(C)c3)cc2C(=O)Nc2ccc(C)c(C)c2)cc1	-2.7	2.5
29	Cn1c(-c2ccccc2)nc2cnc(-c3cccc4ccccc34)cc21	-8.7	1.9
30	CCc1ccc(CN(C)C(=O)c2ccoc2C)nc1	1.9	0.8
31	CSc1nnc2c(n1)OC=Nc1ccc(Br)cc1-2	5.0	0.4
32	Cn1c(N2CCOCC2)nc2cc(C(=O)Nc3cnc4n3CCCC4)ccc21	0.2	-2.2
33	COc1ccc(NC(=O)Cn2nc(-c3cccs3)c3sc(N4CCCC4)nc3c2=O)cc1OC	-5.3	-9.1
34	Cc1cccc(Cn2c(NC3CCCCC3)nc3c2c(=O)[nH]c(=O)n3C)c1	-1.4	-5.5
35	CCCOc1ccc(OCCSc2nc3ccccc3n2CCO)cc1	-8.0	-11.9
36	CNC(=O)c1cc(NC(=O)N2CCN3CCCCC3C2)ccc1F (centres undefined)	-4.5	-6.0
37	Cn1c(=O)c(Cc2ccccc2)c(O)c2c(=O)n(-c3ccccc3)c(=O)n(-c3ccccc3)c21	6.9	7.1
38	COc1cc(CNC(=O)CNC(=O)c2ccco2)ccc1OC1CCCC1	4.8	1.9
39	COCC(=O)N1CCCN(Cc2cc(C(C)C)no2)CC1	2.6	0.4
40	CC(C)(C)c1ccc(S(=O)(=O)Nc2nccnc2-c2ccc(CNCc3ccc4c(c3)OCO4)cc2)cc1	-2.1	-4.5
41	Cc1nc2c(s1)CCCC2n1cnc(-c2ccccc2)c1-c1nc[nH]c1C (centres undefined)	-3.4	-2.8
42	CCN1C(=S)NC(c2cccc(NC(=O)C(C)(C)CCl)c2)C(C(=O)OC)=C1C (centres undefined)	22.3	27.4
43	CCOCCn1c(CN2CCN(CC)CC2)nc2c1c(=O)n(C)c(=O)n2C	0.0	-1.7
44	CC1(C(=O)NS(=O)(=O)c2ccccc2Cl)CCN1C(=O)CC1CCCC1 (centres undefined)	7.9	7.6
45	COc1ccc(CCn2c(-c3cc(C(F)(F)F)ccc3F)nc3ccc(Br)cc3c2=O)cc1	4.5	-0.9
46	CCN1CCN(C(c2ccc(SC)cc2)c2c(O)cc(C)n(CC)c2=O)CC1 (centres undefined)	-0.1	-4.0
47	c1ccc2oc(-c3ccncc3)cc2c1	-26.5	-33.9
48	CCSCCC(=O)NCCn1cc(C)cn1	1.7	0.2
49	CCCN(CC(=O)N1CCc2sccc2C1c1ccc(Cl)cc1)S(=O)(=O)c1ccc(OC)cc1 (centres undefined)	-0.6	9.3
50	O=c1[nH]c(CNC2CCCCC2)nc2scc(-c3ccc(Cl)cc3)c12	27.8	39.4
51	O=C(Nc1ccc(F)cc1F)N1CCc2ccccc2C1c1ccccc1Cl (centres undefined)	19.9	7.9
52	CCn1cnnc1SC(C)C(=O)Nc1ccc(C)c(F)c1 (centres undefined)	1.6	-1.0
53	O=C(Cc1cccs1)N1CC(=O)N(C2CCCCC2)CC(O)C1 (centres undefined)	-1.0	10.5
54	Cc1nc(N2CCC(NC(Cn3cccn3)c3ccccc3)CC2)nc2ccc(F)cc12 (centres undefined)	4.2	-0.6
55	CSc1ccc(-c2csc(N)n2)cc1	-5.1	-5.6
56	COc1ccc(C(O)=C2C(=O)C(=O)N(CCN3CCOCC3)C2c2ccc(C(C)(C)C)cc2)cc1 (centres undefined)	-3.6	-10.7
57	CC(=O)c1cccc(NC(=O)N2CCCC(C(=O)c3cc(F)ccc3F)C2)c1 (centres undefined)	2.0	-1.7
58	COc1ccc2[nH]c3c(c2c1)CCN(C(=O)C=C(C)C)C3c1ccccc1OC (centres undefined)	7.8	-1.4
59	O=C(NS(=O)(=O)N1CCCCC1)C1CC1c1ccccc1F (centres undefined)	-24.9	-26.9
60	O=c1c(-[n+]2ccccc2)cc2[nH]c3ccccc3c2n1-c1ccccc1	-17.9	-27.6

The results go on.
no.	SMILES	NPYLR7 agonist	NPYLR7 agonist max-min
61	Cc1ccccc1-c1nc2scc(CCNS(=O)(=O)CCc3ccccc3)n2n1	4.3	2.3
62	CCc1c(C(=O)N2CCNCC2C(=O)NC2CC2)csc1C (centres undefined)	-0.3	-4.1
63	CCc1cc(=O)[nH]c(-n2nc(C)cc2NC(=O)c2cccc3ccccc23)n1	9.2	4.2
64	CN(C)c1ncc(CN2CCCC2c2nc(-c3ccccc3)no2)s1 (centres undefined)	-0.9	-1.1
65	CCCN(CC(=O)N1CC(=O)N(c2cccc(C)c2)C1)C(=O)c1ccc(C(C)(C)C)cc1	6.8	13.7
66	O=C(O)C1CCN(S(=O)(=O)c2ccc(Br)cc2Cl)CC1	5.7	9.1
67	Clc1cc(Oc2ccccc2Cl)ncn1	9.1	17.4
68	CCc1csc(CNC(=O)CC2NC(=O)c3ccccc32)n1 (centres undefined)	2.3	0.9
69	COc1ccc(CCN(Cc2ccc(C)s2)C(=O)CN(C(=O)c2cccc(Cl)c2)C2CCCCC2)cc1OC	17.8	24.5
70	N#Cc1c(O)c2c(-c3ccc(-c4ccccc4O)cc3)csc2[nH]c1=O	-0.3	-0.1
71	Cc1ccc(S(=O)(=O)N2CCN(c3ccc(-n4nc(C)cc4C)nn3)CC2)c(C)c1	-6.8	-9.6
72	CCOC(=O)c1nc(-c2ccccc2)oc1CN1C(C)COCC1C (centres undefined)	5.0	-20.9
73	Cc1cnc(N)c(-c2ccc(F)cc2Cl)c1	9.5	5.1
74	Cc1ccsc1C(=O)N1CCC1(C)C(=O)NS(=O)(=O)Cc1cccc(Cl)c1 (centres undefined)	-0.4	-2.8
75	COc1cc(Cl)ccc1OCc1cc(C(=O)N2C[C@H]3CC[C@H]2C3)no1	6.8&-11.5	1.5&-13.2
76	CCNC(=O)C1CCCN(C(=O)c2ccc3c(c2)CCN3S(C)(=O)=O)C1 (centres undefined)	5.4	0.4
77	Cc1ccccc1CCN1CCCC(CN(C)Cc2nccs2)C1 (centres undefined)	10.5	1.0
78	COc1ccc(-c2ccnc3[nH]n(-c4nc(C)cc(C)n4)c(=O)c23)cc1	5.4	2.2
79	Cc1ccc(Nc2nnc(SC(C)C#N)s2)cc1 (centres undefined)	0.3	-1.9
80	COC(=O)c1nnn(CC(=O)Nc2ccc(Br)cc2F)c1C(=O)OC	-11.9	-14.4
81	COc1cccc(-n2nnc3c(SCc4ccccn4)ncnc32)c1	19.1	22.9
82	CCc1nc2c(OCc3ccc(Cl)cc3Cl)cccn2c1N(C)C(=O)COc1ccccc1	4.4	-8.7
83	Cc1ccn(CC(=O)N2CCC(CCC(=O)Nc3ccc4c(c3)OCCO4)CC2)n1	4.9	0.9
84	Cc1cnc(C(=O)Nc2cccc(CN(C)C)c2)cn1	15.6&-2.4	8.4&0.5
85	Cc1ccccc1NC(=O)N1CC(=O)N2CCc3ccccc3C2C1 (centres undefined)	2.3	15.8
86	CCOC(=O)CNC(=O)COc1coc(CN2CCN(Cc3ccccc3)CC2)cc1=O	-2.6	-3.2
87	O=C(NCCCC(=O)N1CCCSc2ccccc21)c1ccc(Cl)cc1	4.8	1.9
88	COc1ccc(CCOC(=O)[C@@H]2CCCN2C(=O)C(C)Oc2ccccc2)cc1OC (some centres undefined)	-5.6	-10.6
89	COc1cccc(C(=O)c2c(N)c(C(=O)Nc3cc(C)cc(C)c3)c3ccccn23)c1	9.5	4.5
90	CC(=O)N(/C=C1\N=C(c2ccccc2)OC1=O)c1ccc(Cl)cc1Cl	-3.2	-8.0
91	Cc1c(NC(=O)Cc2ccccc2NS(C)(=O)=O)n[nH]c1C1CC1	6.4	3.7
92	COc1coc(C(=O)Nc2nnc(C)s2)cc1=O	4.5	-1.2
93	Cc1cccc(C)c1NC(=O)CN1CCSc2ccccc21	-11.9	-10.6
94	COC(=O)[C@@H](NC(=O)C1CC12CCCC2)C(C)(C)C (some centres undefined)	-2.8	-3.7
95	COC(=O)C1=C(O)/C(=C\c2ccccc2O)SC1=Nc1cccc(Cl)c1	-7.8	-0.7
96	Cc1cc(C2CCCN2Cc2cnc3c(-c4ccccc4)cnn3c2)on1 (centres undefined)	13.2	10.3
97	CCn1c(=O)c([N+](=O)[O-])c(N2CCC(C)CC2)c2ccccc21	5.4	6.5
98	CN(C)c1ccc(NC(=O)C2CCC2)cc1CN(CC1CC1)S(C)(=O)=O	19.1	22.0
99	COc1ccccc1C(=O)Nc1c2c(nn1-c1ccc(C)cc1C)CSC2	1.2	7.0
100	CC1(c2ccc3c(c2)OCCCO3)NC(=O)N(CC(=O)Nc2ccc(C(N)=O)cc2)C1=O (centres undefined)	0.7	3.0

Looked up above.
In NPYLR7 agonist max-min, compound 99 is entered as 7.0
In NPYLR7 agonist, compound 94 is entered as -2.8
In NPYLR7 agonist max-min, compound 81 is entered as 22.9

Random excerpt: 3 records from the list, in no set order.
no.	SMILES	NPYLR7 agonist	NPYLR7 agonist max-min
98	CN(C)c1ccc(NC(=O)C2CCC2)cc1CN(CC1CC1)S(C)(=O)=O	19.1	22.0
87	O=C(NCCCC(=O)N1CCCSc2ccccc21)c1ccc(Cl)cc1	4.8	1.9
82	CCc1nc2c(OCc3ccc(Cl)cc3Cl)cccn2c1N(C)C(=O)COc1ccccc1	4.4	-8.7

Continued:
no.	SMILES	NPYLR7 agonist	NPYLR7 agonist max-min
101	O=C(NC1CC1c1ccccc1)C1(c2ccccc2)CCC1 (centres undefined)	-1.6	-1.2
102	CC1(C)N=C(c2ccccn2)C(C)(C)N1O	-12.1	-14.2
103	CN(CCN1CCOCC1)C(=O)NCc1ccccc1-n1cccn1	1.7	1.3
104	CCOC(=O)c1cc(-c2cccc(NC(=O)c3ccc(OC)c(F)c3)c2)n(-c2ccccc2OC)n1	24.3	12.8
105	Nc1nc(CN2CCCCC2)nc2ccccc12	7.3	13.6
106	COC(=O)C1=C(Nc2ccccc2NC(=O)Cn2nc(C)c([N+](=O)[O-])c2C)CSC1	-9.4	-11.9
107	COc1ccc(C(=O)N2CC(=O)N(CCC#N)CC(O)C2)cc1OC (centres undefined)	16.9	26.1
108	c1ccc(-c2ncc(-c3nccn3CCc3cnc[nH]3)s2)cc1	-0.3	-5.3
109	CC(=O)c1ccc(Nc2cc(C)nc3cc(C(F)(F)F)ccc23)cc1	2.1	1.3
110	O=C1OC(/C=C/c2ccccc2)=NC/1=C/c1ccccc1F	-0.6	-4.1
111	CN(C)/C=C/C=C1C(=O)OC(C)(C)OC1=O	-11.6	-20.0

Screening results: PubChem, Fisher Drug Discovery Resource Center
